# UCH37 inh = inhibitors of human UCH37 deubiquitinase, primary screen, biochemical, Ub-AMC cleavage, fluorescence | Ubiquitin carboxyl-terminal hydrolase isozyme L5 (Homo sapiens), Q9Y5K5 | purified proteasome/UCH37 | inhibition, % (no concentration beside the values) | 330,000 tested, 0.33% active;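 active = mean of two replicates above 20%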;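 also: 0% = compound-free wells with enzyme and 100% = wells lacking proteasome; stock transfer was 100 nL into about 20 µL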
# Target sequence (Q9Y5K5 whole entry, looked up): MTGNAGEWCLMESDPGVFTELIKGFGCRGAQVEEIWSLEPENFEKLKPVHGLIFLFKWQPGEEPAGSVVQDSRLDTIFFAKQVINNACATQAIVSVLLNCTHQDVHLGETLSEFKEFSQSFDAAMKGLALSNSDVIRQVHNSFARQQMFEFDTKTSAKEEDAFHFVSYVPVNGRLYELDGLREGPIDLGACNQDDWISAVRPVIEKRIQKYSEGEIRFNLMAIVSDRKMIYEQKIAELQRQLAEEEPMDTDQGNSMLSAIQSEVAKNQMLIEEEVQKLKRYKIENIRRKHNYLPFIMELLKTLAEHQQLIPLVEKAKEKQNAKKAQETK
#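 Material: Human UCH37 enzyme supplied as purified proteasome complex | Schedule: 30 min compound-proteasome preincubation then 25 min substrate reaction, room temperature | Detection: AMC fluorescence from Ub-AMC cleavage, excitation 355 nm, emission 460 nm | Benchmarks: Wells without proteasome as full block, compound-free enzyme plus substrate as uninhibited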
# RanGTP-Imp inh = inhibitors of RanGTP-importin-beta interaction, primary screen, biochemical, FRET, CFP-Ran, YFP-importin-beta, homogeneous; 300,000 tested, 1.1% active; inhibition, % (concentration not given with the values); cell-free CFP-Ran/YFP-importin-beta FRET ratio;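 active = most replicates above 15%; inconclusive = exactly half above 15%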;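 also: 0% = DMSO wells and 100% = Ran loaded with GDP instead of GTP; wells of about 40 µL received 100 nL stock; the first replicate is given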
# E coli growth = E. coli growth inhibition, primary screen, OD600; Escherichia coli growth, 23 h; stronger effect = lower value; OD600 absorbance (no concentration beside the values); 330,000 tested, 0.21% active;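 active = OD600 absorbance below the run mean of sample wells minus 3.6 SD, in any replicate, cut at about 0.56 in these data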;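 also: stock transfer was 300 nL into about 60 µL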
# FGF22 binding = binders of human FGF22 protein, primary screen, FGF22 synaptogenesis inhibitor project, biophysical, thermal shift, single point; Fibroblast growth factor 22 (Homo sapiens), Q9HCT0; 340,000 tested, 1.5% active; recombinant FGF22 thermal shift, SYPRO orange fluorescence; percent of sucrose octasulfate shift, DMSO zero; AID 651658, 2012; calls only at 9.99 µM;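 active = melting point raised past a set limit in the mean and every replicate; inconclusive = no clear call; three in four hits are not shown here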
# Target sequence (Q9HCT0 whole entry, looked up): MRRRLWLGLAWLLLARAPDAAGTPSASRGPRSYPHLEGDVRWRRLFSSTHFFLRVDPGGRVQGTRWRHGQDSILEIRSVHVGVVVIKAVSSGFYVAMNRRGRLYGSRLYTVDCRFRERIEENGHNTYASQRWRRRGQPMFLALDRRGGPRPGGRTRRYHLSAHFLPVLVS
# HNF4A DNA FP = change in binding of human HNF4A to DNA, primary screen, biochemical, fluorescence polarization, FITC-DNA; Hepatocyte nuclear factor 4-alpha (Homo sapiens), P41235; 360,000 tested, 0.3% active; activity change, % at 10 µM; 1 h; in the data active = activity change above about 30%, passing the limit was not always enough;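 also: controls were the assay level and a saturating level of protein; the project sought stronger binding though the title names inhibitors; some compounds called inactive have numbers as strong as hits; positive values seem to mean higher polarization but the record does not say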
# AF4-AF9 inh = inhibitors of AF4 peptide binding to AF9, primary screen, biochemical, AlphaScreen, biotin-AF4 peptide, FLAG-AF9, single point. Protein AF-9 (Homo sapiens), P42568. inhibition, % at 10 µM. 350,000 tested, 0.47% active;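 active = every replicate reaching a set inhibition limit, whatever the replicate mean, cut at about 25% in these data; inconclusive = mean inhibition reaches that limit but some replicates miss it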;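 also: 0% = plate neutral control median and 100% = total signal loss; the record names both 10 and 1 µM as test concentration; the first replicate is given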
# Target sequence (P42568 whole entry, looked up): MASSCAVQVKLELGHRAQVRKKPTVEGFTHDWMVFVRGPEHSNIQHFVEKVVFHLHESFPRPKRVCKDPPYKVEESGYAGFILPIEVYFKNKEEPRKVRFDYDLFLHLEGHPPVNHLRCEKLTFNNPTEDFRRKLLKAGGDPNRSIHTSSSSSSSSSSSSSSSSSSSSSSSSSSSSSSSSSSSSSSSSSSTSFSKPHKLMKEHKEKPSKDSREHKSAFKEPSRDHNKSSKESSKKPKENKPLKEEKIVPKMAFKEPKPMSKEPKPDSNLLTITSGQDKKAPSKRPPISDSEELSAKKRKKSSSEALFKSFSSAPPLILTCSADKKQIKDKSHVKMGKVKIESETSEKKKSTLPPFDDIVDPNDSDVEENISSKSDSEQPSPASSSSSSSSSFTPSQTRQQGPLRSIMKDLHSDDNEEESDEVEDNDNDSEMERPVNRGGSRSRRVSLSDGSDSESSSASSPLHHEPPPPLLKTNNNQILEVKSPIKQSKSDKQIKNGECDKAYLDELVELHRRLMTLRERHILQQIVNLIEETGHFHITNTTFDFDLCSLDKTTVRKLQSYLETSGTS
# Vif A3G = inhibitors of Vif binding to APOBEC3G peptide, primary screen, biochemical, TR-FRET, GST-Vif 1-94, biotin-A3G peptide, dose response retest (AID 1117319). Virion infectivity factor (Human immunodeficiency virus type 1 group M subtype B (isolate …. TR-FRET GST-Vif / biotin-A3G peptide binding; higher % means a stronger effect; test concentration not given here; strong numbers were not always called active. one-dose inhibition, %; IC50 in µM for titrated hits. 260,000 tested, 0.57% active;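 active = above the screen mean plus three standard deviations and confirmed in dose response; inconclusive = results disagree or hit not tested in dose response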;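 also: Vif residues 1-94 fused to GST binding biotinylated APOBEC3G peptide 110-148; 0% = full assay without inhibitor and 100% = GST in place of GST-Vif; retest series ran down from 100 µM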
# Active calls of the source: *; i = inactive; ? = inconclusive; nt = no result given. These rows are one share of the data; the hit share may differ from the screen's.
# Sequence of screens: AF4-AF9 inh	Vif A3G	FGF22 binding	E coli growth	UCH37 inh	RanGTP-Imp inh	HNF4A DNA FP
- CCCCOc1ccc(C(=O)OC(C)CN(C)C)cc1 (stereo not drawn)
→ nt	63.1%	nt	0.714	1.3	4.9	3.2
- CC(OC(=O)CN1C(=O)c2ccccc2C1=O)C(=O)NCc1ccccc1 (stereo not drawn)
→ -2.8	nt	i	0.709	-0.6	4.1	4.2
- CC(NO)C(C)(C)NO (stereo not drawn)
→ nt	2.7%	nt	0.774	4.0	-2.5	4.0
- Cc1nc(C)c(C(=O)O)c(-c2ccsc2)c1C(=O)O
→ -1.6	18.0%	i	0.652	2.3	3.5	8.5
- CC(=O)c1ccc(-n2cc(-c3ccc(C(C)(C)C)cc3)[n+]3c2SCCC3)cc1
→ 5.6	-9.6%	i	0.663	2.3	-2.8	5.4
- COc1ccc(N2CC(C(=O)NCc3nnnn3-c3ccc(C)c(C)c3)CC2=O)cc1 (stereo not drawn)
→ -2.5	4.0%	i	0.643	2.1	-3.2	-2.8
- Cc1ccccc1CC1(CO)CCCN(C(=O)c2cc(Cl)ccc2F)C1 (stereo not drawn)
→ 0.3	10.3%	i	0.697	3.4	-0.7	1.9
- O=C(Nc1cc(S(=O)(=O)N2CCOCC2)ccc1OCC(F)(F)F)C1CCCC1
→ -3.0	-10.8%	nt	nt	nt	nt	2.9
- COc1ccc(OCC(=O)N2CCN(S(=O)(=O)c3ccc(Cl)s3)CC2)cc1
→ 0.1	nt	i	0.69	1.8	nt	-2.5
- Cn1c(CNC(=O)c2ccc(Cl)cc2)nnc1SCC(=O)NC1=NCCS1
→ 1.2	6.8%	i	0.704	-1.0	5.1	-2.3
- Cc1ccc(SCC(=O)Nc2ccccc2C(=O)O)cc1
→ nt	0.2%	nt	0.717	1.5	-4.8	-0.1
- Cc1ccc(NC(=O)c2sc(Cl)nc2C)c(C)c1
→ nt	-1.6%	nt	0.679	1.5	-4.1	1.3
- CCc1c(O)nc(SCC(N)=O)n(-c2ccccc2F)c1=O
→ nt	-1.2%	nt	0.634	0.6	-3.6	-2.2
- CC(=O)c1cccc(NS(=O)(=O)c2ccc3c(c2)oc(=O)n3C)c1
→ nt	-5.7%	nt	0.704	6.2	-3.4	-2.1
- O=C(OCc1cccc(F)c1)c1cc2ccccc2cc1O
→ -8.0	nt	i	0.721	1.9	1.7	-0.7
- O=C(COc1ncnc2sccc12)NC1CCCc2ccccc21 (stereo not drawn)
→ -2.0	nt	i	0.674	-1.5	5.7	-0.7
- S=P(N1CC1)(N1CC1)N1CC1
→ -1.8	nt	i	0.651	2.4	nt	1.0
- COCCn1c(C)nc2oc3ccc(Br)cc3c(=O)c2c1=O
→ nt	0.8%	nt	0.699	5.0	5.9	6.7
- COc1ccc(N2CC(C(=O)NC3CCCCC3)CC2=O)cc1 (stereo not drawn)
→ 2.3	nt	i	0.689	1.3	5.8	4.3
- O=[N+]([O-])c1ccc(Sc2n[nH]c(-c3ccco3)n2)nc1
→ 0.0	1.5%	i	0.714	8.2	4.3	-1.1
- O=C(CSCc1ccc([N+](=O)[O-])cc1)NCCSCc1ccccc1
→ nt	10.3%	nt	0.738	2.1	0.9	-0.9
- ON=C1CCCC2CCCCC12 (stereo not drawn)
→ -1.2	-6.3%	i	0.619	1.4	nt	1.7
- CCOc1ccc(NS(=O)(=O)c2cc(OC)ccc2OC)cc1
→ -0.3	7.0%	i	0.68	1.8	-0.4	1.8
- O=C(O)CCC(=O)NNC(=O)CCC1CCCCC1
→ -20.9	nt	i	0.697	1.6	0.3	-1.5
- CCOC(=O)C1=C(C)OC(N)=C(C#N)C1c1ccsc1 (stereo not drawn)
→ -1.4	19.6%	i	0.625	4.0	-0.5	0.7
- O=C(C(=O)N1CCCCCC1)c1c[nH]c2ccccc12
→ -1.7	nt	i	0.613	6.0	7.2	-1.0
- CCN(CC(=O)Nc1cccc(OC)c1)C(=O)c1cnc(Cl)c(Cl)c1
→ -1.0	nt	i	0.618	0.1	-3.2	-0.5
- COc1ccc(OC)c(NC(=O)C(C)OC(=O)c2cc3ccccc3[nH]2)c1 (stereo not drawn)
→ -1.4	nt	i	nt	nt	nt	-3.3
- CC(C)C(NC(=O)c1ccccc1)C(=O)OCn1nnc2ccccc2c1=O (stereo not drawn)
→ -0.7	-1.2%	i	0.671	2.5	nt	4.6
- O=C(Nc1ccccc1C(=O)N/N=C/c1ccccc1)c1ccco1
→ 5.8	-3.4%	i	nt	nt	8.7	2.8
- COc1ccc(CN(CC(=O)NC(C)C)C(=O)CCC(=O)Nc2nccs2)cc1
→ 1.7	nt	i	0.7	1.3	-1.6	1.5
- O=C(Nc1cccc(O)c1)c1noc2c1CCc1ccccc1-2
→ nt	3.1%	nt	0.686	0.4	8.1	2.4
- Cc1ccc2c(CSc3nnc(C4CC4)n3N)cc(=O)oc2c1
→ nt	8.9%	nt	0.703	4.9	1.5	1.2
- Nc1nnc(-c2cccc([N+](=O)[O-])c2)o1
→ -42.7	16.3%	i	0.674	-0.9	1.2	-2.3
- OCC1CCCCN1C(=S)Nc1ccc(Cl)cc1Cl (stereo not drawn)
→ -1.7	22.4%	nt	nt	nt	-2.5	0.7
- O=C(Nc1ccc(F)c(Cl)c1)c1cc(C2CCCCN2C(=O)c2ccccc2)on1 (stereo not drawn)
→ -0.9	nt	i	nt	nt	nt	1.4
- N#C/C(=C\c1cccnc1)C(=O)Nc1ccccc1[N+](=O)[O-]
→ 1.4	nt	i	0.708	5.0	0.5	-5.8
- C/C(=N\OCC(=O)Nn1c(=O)[nH]c2ccccc2c1=O)c1cccs1
→ -3.4	-3.0%	i	nt	nt	2.8	1.9
- CCCCCN(C(=O)CCC(=O)OCCOc1cccc(C)c1)c1c(N)n(CCCC)c(=O)[nH]c1=O
→ -0.9	nt	nt	nt	nt	1.4	3.3
- Cc1ccc(NC(=O)CSc2nc3c([nH]c4ccccc43)c(=O)n2C)cc1
→ 0.1	nt	i	0.746	2.1	5.6	3.6
- CCOC(=O)N1CCc2c(sc(NC(=O)CN(CC)CC)c2C#N)C1
→ 0.3	-0.8%	i	0.698	4.8	8.3	-2.8
- COc1ccc(N2CCN(C(=O)c3ccc4c(c3)[nH]c(=S)n3c5ccccc5nc43)CC2)cc1
→ 0.4	-1.7%	i	0.691	-11.1	1.9	nt
- CC(C)N(C(=O)[C@H]1C[C@H](CC(=O)NCC23CC4CC(CC(C4)C2)C3)C(=O)N2CCc3c([nH]c4cc(CCC(=O)N(C)C)ccc34)[C@]12C)C(C)C
→ 8.3	-4.2%	i	0.703	0.9	nt	5.3
- O=C(O)CC1(CC(=O)Nc2ccc(C(F)(F)F)cc2)CCCC1
→ -1.4	-3.6%	i	0.675	3.0	2.5	-1.9
- COc1ccc(C(=O)N(C)c2ccccc2C(=O)NCCc2ccccc2)cc1
→ -0.4	1.8%	i	0.701	2.3	1.0	-0.4
- Cc1ccc(C(=O)Nc2cc([N+](=O)[O-])ccc2F)s1
→ -4.3	nt	i	0.667	1.5	-2.4	2.3
- Cc1c(C)c(C)c(C(=O)C2CCN(c3ccc([N+](=O)[O-])cn3)CC2)c(C)c1C
→ -0.4	nt	i	0.715	1.6	-2.0	-0.4
- COc1ccc(CN2CCC(C(=O)NCCc3ccc(OC)c(OC)c3)CC2)c(OC)c1
→ nt	-0.6%	nt	0.768	0.0	-1.7	-2.4
- CC1(Oc2ccc(Cl)cc2)CCN(Cc2ccc(OC(F)(F)F)cc2)C1 (stereo not drawn)
→ -1.2	nt	i	nt	nt	nt	0.0
- Clc1ccc2nc(-c3ccccc3)c(CN3CCOCC3)n2c1
→ nt	0.2%	nt	0.68	-3.4	-1.2	4.7
- CCOC(=O)C1CCCN(C(=O)/C(=C/c2ccco2)NC(=O)c2ccccc2)C1 (stereo not drawn)
→ 4.7	nt	i	0.641	2.9	0.1	6.0
- CC(C)c1nn2c(=O)cc(COc3cccc(NC(=O)c4ccco4)c3)nc2s1
→ -2.6	nt	i	0.707	-3.9	?	-0.2
- Cc1oc(-c2cccc(Cl)c2)nc1CS(=O)(=O)CC(=O)NCCCN1CCOCC1
→ -8.9	nt	i	0.779	0.3	-0.4	-3.7
- Cc1ccc(N/C=C/C(=O)c2ccc(C)cc2)cc1
→ nt	?	nt	nt	nt	-1.9	1.2
- CCNC(=O)COc1cc(C)c(Cl)c(C)c1
→ nt	?	nt	0.663	1.3	1.2	0.7
- O=C(NCC(=O)N(c1cccc(F)c1)C(C(=O)NC1CCCC1)c1ccncc1)c1ccco1 (stereo not drawn)
→ 9.0	nt	i	0.666	0.2	-3.6	-3.7
- Cc1ccccc1OCC(=O)Nc1nnc(C2CCCCC2)s1
→ -3.7	-3.0%	i	0.664	-0.5	-1.1	-0.7
- CC(C)c1ccc(NC(=O)CSc2nc3ccsc3c(=O)n2Cc2ccc(C(=O)O)cc2)cc1
→ -1.3	nt	i	0.695	1.4	-0.6	-3.4
- COc1ccc(S(=O)(=O)N2CCC(C(=O)NN3CCCCC3)CC2)cc1
→ -1.2	-1.0%	i	nt	nt	nt	1.4
- CC1Cc2cc(S(=O)(=O)N3CCN(c4ccc(Cl)cc4)CC3)ccc2N1C(=O)C1CC1 (stereo not drawn)
→ 1.1	nt	i	0.684	4.9	2.9	5.3

# Remaining list, next part
# Sequence of screens: AF4-AF9 inh	Vif A3G	FGF22 binding	E coli growth	UCH37 inh	RanGTP-Imp inh	HNF4A DNA FP
- CC1=C(C)CS(=O)N(S(=O)(=O)c2ccc(Cl)cc2)C1 (stereo not drawn)
→ nt	4.0%	nt	nt	nt	0.4	3.9
- O=C(CSc1nc2[nH]ncc2c(=O)n1-c1ccccc1Br)NCc1ccccc1Cl
→ 8.5	12.8%	i	0.73	2.3	-0.2	0.5
- CC(SCc1ccccc1)C(=O)NCc1ccccn1 (stereo not drawn)
→ -1.0	7.2%	i	0.725	8.1	0.1	2.7
- CCOc1cc(CN2CCN(C(=O)CC(C)C)CC2)ccc1OC
→ nt	-4.3%	nt	0.762	2.9	3.8	-2.3
- CCCC(=O)Nc1ccc2c(c1)nc(CN1CCCC1)n2C
→ nt	7.0%	nt	0.781	5.2	-3.9	-1.2
- O=C(O)c1cc2c(s1)-c1ccccc1CC2
→ nt	nt	nt	0.67	-492.7	?	-0.3
- c1ccc(-c2nnc3sc(CN4CCC5(CC4)OCCO5)cn23)cc1
→ 1.7	1.1%	i	0.715	4.4	-0.6	2.5
- CCOc1cc(C(=O)NC(CC(=O)O)c2ccc(OC3CCCC3)cc2)cc(OCC)c1OCC (stereo not drawn)
→ -1.1	nt	i	0.682	1.5	-0.5	5.7
- CCCc1c(C)nc2c(OC)cccc2c1SCC(=O)O
→ 1.4	-11.6%	i	nt	nt	1.7	-0.3
- COc1ccccc1C(=O)Nn1cnnc1
→ -0.7	nt	i	0.67	-0.8	3.9	-0.9
- c1ccc2cc(-c3csnn3)ccc2c1
→ nt	1.0%	nt	0.717	0.6	-2.1	-2.1
- Cn1nccc1C(=O)N1CCCC(C(=O)c2ccc(C(F)(F)F)cc2)C1 (stereo not drawn)
→ -1.0	nt	i	0.704	4.8	-1.6	-5.1
- Cc1cn([C@H]2C[C@H](O)[C@@H](CNC(=O)c3ccccn3)O2)c(=O)[nH]c1=O
→ -0.6	-1.3%	i	nt	nt	nt	-0.8

# From PubChem
